PrP 5UTR inh – inhibition of PrP 5' UTR reporter expression; cell-based PrP 5' UTR mRNA reporter, plate reader; inhibition, % (test concentration not listed); 0.35% of 340,000 active; AID 488862;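 active = every replicate at 50% or more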;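 also: 0 = median of the neutral control wells; tested in H4 reporter cells; numbers are from one replicate; inactives centre near -14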
BJeLR viability – kills HRASV12-expressing BJeLR cells; BJeLR (HRASV12) viability, CellTiter-Glo ATP luminescence, 48 h; reference of the scale not given here; inhibition, % (test concentration not listed); 0.17% of 300,000 active; AID 1554;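 active = replicate mean above 50%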;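 also: 50 nL library stock added to about 25 µL; numbers are from one replicate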
Bead autofluor – flagged as autofluorescent in microsphere protease counterscreen; compound autofluorescence counterscreen, microsphere flow cytometry; active compounds read high; fluorescence intensity (test concentration not listed); 3.1% of 360,000 active; AID 624483;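 active = at least 3 SD above the mean of all compounds, about 16000 in these data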;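 also: 100 nL of 1 mM stock went into each well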
Sa ugtP lethal – compounds lethal to S. aureus RN4220 ugtP deletion mutant; OD600 growth, 16 h; some inactives read as strong as hits; growth inhibition, % (test concentration not listed); 0.54% of 330,000 active;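 active = z-score under -3 and OD600 up to 0.15 on both plates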;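 also: plate controls were untreated wells for no effect and antibiotic for full effect; wells of about 80 µL received 100 nL stock; the first replicate is given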
Sa RN4220 lethal – S. aureus RN4220 growth inhibition; inhibition, % (no concentration beside the values); 0.33% of 330,000 active; OD600, 16 h; AID 1259311;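 active = z-score of -3 or lower and OD600 up to 0.18 on both plates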;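 also: plate controls were untreated cells for no effect and reference antibiotic for full effect; stock transfer was 100 nL into about 80 µL; one replicate is shown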
Mtb hypoxia rep – Mtb hypoxia fluorescent reporter inhibition; M. tuberculosis hypoxia-regulated fluorescent reporter, fluorescence; fluorescence inhibition, % (test concentration not listed); 0.1% of 300,000 active; AID 1159583;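 active = 35 to 45% if threefold the growth effect, above 45% if 1.5-fold the growth effect; inactive = the rest, general growth blockers included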;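 also: wells of about 50 µL received 100 nL stock; 0% = vehicle wells and 100% = reference inhibitor wells; whole bacteria with a GFP reporter of the hypoxia response; strong numbers were not always called active; many hits fall short of the cut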
Mtb hypoxia rep growth – second read-out of Mtb hypoxia rep, no call of its own (marks repeat the call); growth inhibition, %; measured here: M. tuberculosis growth (absorbance);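 0% = vehicle and 100% = reference antibiotic; read after six days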
The depositor's hits bear a star.

Results for COc1cc(Br)cc(CN2CCN(C=O)CC2)c1O ?
PrP 5UTR inh: -11; BJeLR viability: -6; Bead autofluor: 10425; Sa ugtP lethal: -6; Sa RN4220 lethal: -0.2; Mtb hypoxia rep: -1; Mtb hypoxia rep growth: 0

Results for O=C(NCN1CCCCC1)c1cnccn1 ?
PrP 5UTR inh: -17; BJeLR viability: -7; Bead autofluor: 3144; Sa ugtP lethal: 0; Sa RN4220 lethal: 4.9; Mtb hypoxia rep: 15; Mtb hypoxia rep growth: 7

What do the screens show for `COc1cc(NC(=S)N(C)CCC#N)c(OC)cc1Cl`?
PrP 5UTR inh: -10; BJeLR viability: -3; Bead autofluor: 4511; Sa ugtP lethal: 7; Sa RN4220 lethal: 3.7; Mtb hypoxia rep: 0; Mtb hypoxia rep growth: 0

How did CC1CCCCC1NC(=O)C1CCN(S(=O)(=O)c2ccc3c(c2)CCC(=O)N3)CC1 (stereo unspecified) do in these assays?
PrP 5UTR inh: -6; BJeLR viability: -2; Bead autofluor: 5647; Sa ugtP lethal: 9; Sa RN4220 lethal: 2.1

How did O=C(Cn1cncn1)NN=Cc1cc([N+](=O)[O-])ccc1O do in these assays?
Sa ugtP lethal: 76; Sa RN4220 lethal: 88*; Mtb hypoxia rep: 12; Mtb hypoxia rep growth: 5

How did COc1ccc(CCNC(=O)Cn2nnc(C(=O)Nc3cccc(C)c3C)c2N)cc1OC do in these assays?
PrP 5UTR inh: -14; BJeLR viability: 4; Bead autofluor: 5969; Sa ugtP lethal: 6; Sa RN4220 lethal: 3.6; Mtb hypoxia rep: 4; Mtb hypoxia rep growth: 3

Results for Cc1cc(C)c2nc(/N=C(\N)NC(=O)Nc3ccccc3)nc(C)c2c1 ?
PrP 5UTR inh: -38; BJeLR viability: 5; Bead autofluor: 12053

Results for CC(=O)Nc1ccc(S(=O)(=O)Nc2nc3ccccc3nc2Nc2ccccc2)cc1 ?
PrP 5UTR inh: -11; BJeLR viability: 7; Bead autofluor: 2502; Sa ugtP lethal: -7; Sa RN4220 lethal: 12; Mtb hypoxia rep: 2; Mtb hypoxia rep growth: 2

How did C/C(=N\Nc1ccc([N+](=O)[O-])cc1[N+](=O)[O-])C(C)(C)C(C(=O)O)C(=O)O do in these assays?
PrP 5UTR inh: -25; BJeLR viability: -5; Bead autofluor: 2511

What do the screens show for `Cc1cccc(C(=O)NC(=S)NNC(=O)c2ccc(Cl)cc2)c1`?
PrP 5UTR inh: -2; BJeLR viability: 1; Bead autofluor: 2323; Sa ugtP lethal: 84; Sa RN4220 lethal: 85*; Mtb hypoxia rep: -4; Mtb hypoxia rep growth: 5

Results for CCOC(=O)c1cc(-c2c(Cl)cccc2Cl)no1 ?
PrP 5UTR inh: -9; BJeLR viability: -10; Bead autofluor: 5313; Sa ugtP lethal: 12; Sa RN4220 lethal: 3.8; Mtb hypoxia rep: 13; Mtb hypoxia rep growth: 1

What do the screens show for `CCc1nn(CC(=O)NCCc2ccc(OC)cc2OC)c(=O)c2cc3occc3n12`?
PrP 5UTR inh: -4; BJeLR viability: 10; Bead autofluor: 5665; Sa ugtP lethal: -5; Sa RN4220 lethal: 3.8; Mtb hypoxia rep: 10; Mtb hypoxia rep growth: 2

Results for COc1ccccc1NS(=O)(=O)c1cc(NC(=O)c2cccs2)ccc1N1CCOCC1 ?
PrP 5UTR inh: -15; BJeLR viability: -12; Bead autofluor: 3499; Sa ugtP lethal: 10; Sa RN4220 lethal: 7.2; Mtb hypoxia rep: 5; Mtb hypoxia rep growth: 2

What do the screens show for `COc1ccc(OC)c(NC(=O)COC(=O)CCc2nc3ccccc3c(=O)[nH]2)c1`?
PrP 5UTR inh: -32; Bead autofluor: 4121; Sa ugtP lethal: 16; Sa RN4220 lethal: -4.1; Mtb hypoxia rep: 2; Mtb hypoxia rep growth: 10

How did COc1ccc(Cl)cc1NC(=O)C1CC(c2ccccc2O)=NO1 (stereo unspecified) do in these assays?
PrP 5UTR inh: 4; BJeLR viability: 2; Sa ugtP lethal: 2; Sa RN4220 lethal: 6.2; Mtb hypoxia rep: 9; Mtb hypoxia rep growth: 7

What do the screens show for `COc1ccc(CN(Cc2ccc(C(=O)O)cc2)C(=S)Nc2ccccc2Cl)cc1OC`?
PrP 5UTR inh: 6; BJeLR viability: 7; Bead autofluor: 4504; Sa ugtP lethal: 5; Sa RN4220 lethal: 3.5; Mtb hypoxia rep: 7; Mtb hypoxia rep growth: 6

Results for COCC(=O)N(C)c1nnc(-c2cnc(C)cn2)s1 ?
PrP 5UTR inh: -20; BJeLR viability: -3; Bead autofluor: 3886; Sa ugtP lethal: 11; Sa RN4220 lethal: -0.2; Mtb hypoxia rep: 9; Mtb hypoxia rep growth: -4

Results for CC(=NNC(=S)NC1CCCCC1)c1ccc(O)cc1 ?
Sa ugtP lethal: 3; Sa RN4220 lethal: -5.6; Mtb hypoxia rep: 16; Mtb hypoxia rep growth: 5

Results for CCCOc1ccc(CC2CCC(=O)NC2=O)cc1 (stereo unspecified) ?
PrP 5UTR inh: -37; BJeLR viability: -6; Bead autofluor: 2493; Sa ugtP lethal: 2; Sa RN4220 lethal: 2.5; Mtb hypoxia rep: 11; Mtb hypoxia rep growth: 1

How did COc1ccc(C(=O)c2sc3nc(-c4ccccc4)ccc3c2N)cc1 do in these assays?
PrP 5UTR inh: -15; Bead autofluor: 3717; Sa ugtP lethal: -28; Sa RN4220 lethal: -5.8; Mtb hypoxia rep: 1; Mtb hypoxia rep growth: 13

How did COc1ccccc1NC(=O)N1C2CCCC1CC(NC(=O)c1ccccc1)C2 (stereo unspecified) do in these assays?
PrP 5UTR inh: -6; BJeLR viability: -8; Bead autofluor: 4830; Sa ugtP lethal: 11; Sa RN4220 lethal: 4.6; Mtb hypoxia rep: 7; Mtb hypoxia rep growth: 7

How did CCN(CC)CCCN(Cc1cc2cc3c(cc2[nH]c1=O)OCO3)C(=O)Nc1ccccc1OC do in these assays?
PrP 5UTR inh: -16; BJeLR viability: 2; Bead autofluor: 2903; Sa ugtP lethal: 5; Sa RN4220 lethal: 6.2; Mtb hypoxia rep: 8; Mtb hypoxia rep growth: -4

How did Cc1ccc(S(=O)(=O)N2CCOCC2)cc1NC(=O)COc1ccc2c(C)cc(=O)oc2c1 do in these assays?
PrP 5UTR inh: -2; BJeLR viability: -4; Bead autofluor: 5649; Sa ugtP lethal: 5; Sa RN4220 lethal: 1.5; Mtb hypoxia rep: 2; Mtb hypoxia rep growth: -2

What do the screens show for `Fc1ccc(CSc2nncn2NCc2ccc3c(c2)OCO3)cc1`?
PrP 5UTR inh: -17; BJeLR viability: -7; Bead autofluor: 4906; Sa ugtP lethal: -2; Sa RN4220 lethal: 1.5; Mtb hypoxia rep: 2; Mtb hypoxia rep growth: 0

Results for COc1ccccc1NC(=O)CSCc1ccc([N+](=O)[O-])cc1 ?
PrP 5UTR inh: -10; BJeLR viability: -4; Bead autofluor: 2225; Sa ugtP lethal: 6; Sa RN4220 lethal: 4.4; Mtb hypoxia rep: 7; Mtb hypoxia rep growth: 5

How did Cn1cnnc1SCC(=O)Nc1ccc(S(=O)(=O)N2CCOCC2)cc1 do in these assays?
PrP 5UTR inh: -21; Bead autofluor: 3244; Sa ugtP lethal: -2; Sa RN4220 lethal: 1.2; Mtb hypoxia rep: -4; Mtb hypoxia rep growth: 3

Results for CN(C)CCNc1ncnc2c1sc1nc(N3CCOCC3)c3c(c12)CC(C)(C)SC3 ?
PrP 5UTR inh: -1; BJeLR viability: 13; Bead autofluor: 11870; Sa ugtP lethal: -3; Sa RN4220 lethal: -2.6; Mtb hypoxia rep: 7; Mtb hypoxia rep growth: 15

Results for CC(C)N(CCc1ccncc1)C(=O)Nc1ccc(F)cc1 ?
PrP 5UTR inh: -20; BJeLR viability: -9; Bead autofluor: 5789; Sa ugtP lethal: 3; Sa RN4220 lethal: 3.1; Mtb hypoxia rep: 2; Mtb hypoxia rep growth: 6

Results for CCCc1ccc(-c2cc(C(=O)N3CCN(c4ccccn4)CC3)c3ccccc3n2)cc1 ?
PrP 5UTR inh: -4; BJeLR viability: 7; Bead autofluor: 4449; Sa ugtP lethal: 80; Sa RN4220 lethal: -9.4; Mtb hypoxia rep: 7; Mtb hypoxia rep growth: 13

Results for COc1ccc(-c2oc3ccc(-c4cc(OC)c(OC)c(OC)c4)cc3c2C(=O)c2ccc(OC)nc2)cc1 ?
PrP 5UTR inh: -18; BJeLR viability: -7; Bead autofluor: 4258

What do the screens show for `CCOCCCNC(=O)c1cc(Nc2ccc(OC)cc2OC)nc2ccccc12`?
PrP 5UTR inh: -10; BJeLR viability: -19; Bead autofluor: 3112; Sa ugtP lethal: 6; Sa RN4220 lethal: 0.1; Mtb hypoxia rep: 11; Mtb hypoxia rep growth: 14

How did COc1cccc(C(=O)NCCSCc2c(F)cccc2Cl)c1 do in these assays?
PrP 5UTR inh: -33; BJeLR viability: 2; Bead autofluor: 3345; Sa ugtP lethal: 13; Sa RN4220 lethal: -0.7; Mtb hypoxia rep: 14; Mtb hypoxia rep growth: 4

How did CCCCn1c(O)c(C(C)=NCc2cccnc2)c(=O)[nH]c1=O do in these assays?
PrP 5UTR inh: -6; BJeLR viability: 2; Sa ugtP lethal: 1; Sa RN4220 lethal: 3.0; Mtb hypoxia rep: -5; Mtb hypoxia rep growth: 3

Results for CCCC1SC(=NN=Cc2ccc(OC)cc2)N(Cc2ccc(OC)cc2)C1=O (stereo unspecified) ?
Sa ugtP lethal: 33; Sa RN4220 lethal: -1.1; Mtb hypoxia rep: 0; Mtb hypoxia rep growth: 0

How did C=CCn1c(SCC(=O)NC2CCCCC2)nnc1-c1ccc(OC)cc1 do in these assays?
PrP 5UTR inh: -6; BJeLR viability: -6; Bead autofluor: 2288; Sa ugtP lethal: 3; Sa RN4220 lethal: 4.7; Mtb hypoxia rep: 10; Mtb hypoxia rep growth: 4

Results for CCOC(=O)c1cnc2cc(C)nn2c1-c1ccccc1 ?
PrP 5UTR inh: -10; BJeLR viability: 3; Bead autofluor: 3849; Sa ugtP lethal: -1; Sa RN4220 lethal: 1.1; Mtb hypoxia rep: 6; Mtb hypoxia rep growth: 10

What do the screens show for `O=Cc1cn(CC(=O)Nc2ccc(F)cc2)c2ccccc12`?
PrP 5UTR inh: -12; BJeLR viability: 7; Bead autofluor: 4636; Sa ugtP lethal: 6; Sa RN4220 lethal: -2.1; Mtb hypoxia rep: 14; Mtb hypoxia rep growth: 6

Results for Cc1ccc(NC(=O)CN2C(=O)NC3(CCc4ccccc43)C2=O)cc1 (stereo unspecified) ?
PrP 5UTR inh: -6; BJeLR viability: 9; Bead autofluor: 3357; Sa ugtP lethal: -1; Sa RN4220 lethal: 0.6; Mtb hypoxia rep: 4; Mtb hypoxia rep growth: -4

Results for CC1CCCC(C)N1S(=O)(=O)c1ccc(S(=O)(=O)NCc2ccccc2)cc1 (stereo unspecified) ?
PrP 5UTR inh: -21; BJeLR viability: -4; Bead autofluor: 11199; Sa ugtP lethal: 5; Sa RN4220 lethal: 6.9; Mtb hypoxia rep: 2; Mtb hypoxia rep growth: -3

How did Cn1cc(C(O)CN2CCCCC2)c2ccccc21 (stereo unspecified) do in these assays?
PrP 5UTR inh: -52; BJeLR viability: -1; Bead autofluor: 4107; Sa ugtP lethal: 12; Sa RN4220 lethal: 3.4; Mtb hypoxia rep: 3; Mtb hypoxia rep growth: 2

What do the screens show for `CN1C(=O)C(=CC(=O)c2cccs2)c2ccccc21`?
Sa ugtP lethal: 10; Sa RN4220 lethal: 8.2; Mtb hypoxia rep: 9; Mtb hypoxia rep growth: 19

What do the screens show for `COCCCNc1ncnc2ccc(C)cc12`?
PrP 5UTR inh: -12; BJeLR viability: 9; Bead autofluor: 3892; Sa ugtP lethal: 0; Sa RN4220 lethal: 3.3

How did Cc1ccc(S(=O)(=O)N2CCN(C(=O)N3CCOCC3)C2C)cc1 (stereo unspecified) do in these assays?
PrP 5UTR inh: -18; BJeLR viability: 4; Bead autofluor: 23303*; Sa ugtP lethal: -4; Sa RN4220 lethal: -1.1; Mtb hypoxia rep: 0; Mtb hypoxia rep growth: 2

Compound activity from PubChem BioAssay.
